# miR-21 reporter = miR-21 reporter, rising signal. Potency, µM (titrated, usually from 38.3 µM), without a hit: top-dose reporter change, positive = more light. 340,000 tested, under 10 active. HeLa miR-21 FLuc reporter, luciferase, 48 h; active = well fitted rising curve with a large enough effect; inconclusive = small, poorly fitted or top-dose-only effect; inactive = no such curve, though single readings can be large or run the other way;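 note: % of control where 0% means no effect; miR-21 action dims this reporter so a rising signal means less miR-21 action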
#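 Luminescence from a firefly luciferase reporter carrying a miR-21 binding site downstream, stably expressed under a CMV promoter in HeLa cells that make miR-21 endogenously, reports miRNA modulation after 48 h compound exposure up to approximately 40uM final.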
# Rango-impB inh = inhibitors of Rango-importin beta complex formation. Q14974. 0.031% of 340,000 active. Rango CFP/YFP FRET sensor + importin beta, 45 min. Potency, µM (series often up to 92.2 µM), without a hit: top-dose inhibition of complex formation; active = rising FRET ratio curve, often small or poorly fitted; inconclusive = mostly compound fluorescence or quenching in the first reads; inactive = flat curves in all reads;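 note: potency is the fitted concentration of half-maximal effect; 0% = DMSO wells and 100% = buffer wells lacking importin beta; nearly all actives have a fitted effect of over 15% in size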
#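 FRET biosensor (snurportin 1 IBB flanked by EYFP and cerulean), 50 nM, with compound 5 min, then 0.125 microM importin beta in PBS, 1 mM DTT, 0.02% Tween-20, 0.1% BSA. CFP/YFP ratio read after 45 min at room temperature; pre-read flags interference.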
# Rango dissoc inh = inhibitors of RanGTP-induced Rango-importin beta complex dissociation. O95149+P62826. Biochemical FRET Rango-importin beta, RanGTP-induced dissociation. Potency, µM (series often up to 46.1 µM), without a hit: at the highest dose activity change, negative = inhibition. 0.071% of 340,000 active. AID 540253; active means falling FRET ratio curve, often poorly fitted, with flat reads before Ran was added; inconclusive means other falling curves, or compound fluorescence or quenching; inactive means flat or rising ratio curve;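 note: potency is the fitted concentration of half-maximal effect; % of control where 0% means no effect; nearly all actives have a fitted effect of over 45% in size; -100% = wells without RanGTP and RCC1; the record marks most hits as doubtful in a second field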
#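 Two FRET readings bracket the reaction: one 5 min after compound meets Rango–importin beta, another 45 min after RanGTP-RCC1 (0.6 uM Ran, 0.2 uM RCC1, 2 mM GTP) is added. Only the second defines inhibition.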
# GLA inh pH 4.5 = inhibitors of human alpha-galactosidase A at pH 4.5; activity change, negative = inhibition, % at 105 µM; P06280; 230,000 tested, under 10 active; purified enzyme, 4-MU-alpha-Gal fluorescence, pH 4.5; AID 1467; inconclusive = small, poorly fitted or top-dose-only inhibition, or a rising curve; inactive = flat fitted curve, though single readings scatter; no compound was filed as active;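 note: 0% = full activity with enzyme and -100% = basal without enzyme; dose as in the result columns while the protocol names 77 µM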
# Target sequence (P06280 whole entry, looked up): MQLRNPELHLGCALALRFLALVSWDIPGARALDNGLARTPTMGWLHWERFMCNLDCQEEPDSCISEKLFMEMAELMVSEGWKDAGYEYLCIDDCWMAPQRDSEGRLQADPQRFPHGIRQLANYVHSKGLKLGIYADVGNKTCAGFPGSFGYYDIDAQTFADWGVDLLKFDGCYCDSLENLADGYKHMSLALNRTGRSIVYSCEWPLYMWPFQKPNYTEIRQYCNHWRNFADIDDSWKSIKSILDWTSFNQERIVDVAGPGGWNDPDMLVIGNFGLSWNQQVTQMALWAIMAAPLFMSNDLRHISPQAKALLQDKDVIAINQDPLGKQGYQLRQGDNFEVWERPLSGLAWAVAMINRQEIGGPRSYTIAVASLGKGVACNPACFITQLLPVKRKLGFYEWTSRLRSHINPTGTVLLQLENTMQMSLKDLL
# * = called active by the depositor; ? = inconclusive; nt = no result given; [ ] = remark or other dose. This is a subset; rates above refer to the full screens.
SMILES,miR-21 reporter,Rango-impB inh,Rango dissoc inh,GLA inh pH 4.5
COc1ccc(N(C(C)C(=O)N/N=C/c2cccnc2)S(C)(=O)=O)cc1 (centres undefined),-3%,-1.3%,-9%,-2
CC(CCN1CCN(c2ccccn2)CC1)c1ccccc1 (centres undefined),-6%,0.4%,4%,nt
CSc1cccc(N2CC(C(=O)NCCN3C(=O)S/C(=C\c4cccnc4)C3=O)CC2=O)c1 (centres undefined),nt,-0.7%,-5%,nt
Cc1ccc(NC(=O)[C@H](Cc2ccccc2)NC(=O)[C@@H]2Cc3ccccc3CN2)c(C)c1,-8%,0.0%,2%,nt
COc1cc(/C=C/C(=O)Nc2cc(C(F)(F)F)ccc2Cl)cc(OC)c1OC,16%,4.1%,-10%,-17
O=C(CCc1c[nH]c2ccccc12)OCC(=O)N1CCN(S(=O)(=O)c2ccccc2)CC1,nt,-3.1%,0%,nt
Cc1cc2oc(=O)cc(COC(=O)c3n[nH]c4ccccc34)c2cc1C,-9%,-0.6%,21%,-1
CCOC(=O)C1=C(COC(=O)CCOc2ccc(C)cc2)NC(=O)NC1C (centres undefined),nt,-1.0%,-1%,nt
CC(C)Nc1nnc(SCc2cc(=O)n3ccsc3n2)s1,-6%,7.7%,-1%,2
COc1ccc(NC(=O)Nc2nnc(Cc3ccc(F)cc3)s2)cc1,-12%,7.4%,12%,nt
CCc1nnc(NC(=O)CCC(=O)NC2CCCCC2)s1,-6%,-0.7%,-13%,-2
CCN(CC)C(=O)CC(c1ccc2c(c1)OCO2)c1c(OC)cc(OC)c2ccc(=O)oc12 (centres undefined),-6%,-0.2%,-12%,-23
CC(C)CN(C(=O)c1cc2ccccc2o1)c1c(N)n(CC(C)C)c(=O)[nH]c1=O,-2%,3.4%,-5%,4
COc1ccc(S(=O)(=O)NNC(=O)Nc2ccc(C)cc2)c(OC)c1,3%,?,3%,nt
CN(C)c1cc[n+](CC(=O)Nc2cc(C(F)(F)F)ccc2Cl)cc1,11%,1.7%,-3%,-2
O=C(Nc1ccccc1)N1CCCC(CNS(=O)(=O)Cc2ccccc2)C1 (centres undefined),-14%,0.4%,-7%,-16
CCOC(=O)CC(NCc1ccc(OC)c(OCC)c1)c1ccc(C)cc1 (centres undefined),-7%,-2.1%,-8%,2
O=C(NCCc1nc2ccccc2[nH]1)/C(=C/c1ccco1)NC(=O)c1ccco1,-1%,0.5%,8%,2
O=C(Cn1cc([N+](=O)[O-])cn1)NCc1ccc(-n2cccn2)cc1,-5%,3.0%,3%,-5
O=C(Nc1ccc([N+](=O)[O-])cc1)c1cccc(S(=O)(=O)Nc2cccnc2)c1,2%,-0.3%,1%,nt
COc1ccc(CCNC(=O)Cn2nnc(C(=O)Nc3ccc(Br)cc3)c2N)cc1OC,0%,-4.3%,-8%,nt
O=C(NCCS(=O)(=O)N1CCN(c2ccccc2)CC1)c1ccco1,nt,0.0%,-3%,nt
COc1ccc(NC(=O)C(=O)NCCCO)cc1Cl,-22%,0.5%,11%,0
CCS(=O)(=O)Nc1ccc(C2=NN(C(=O)c3ccco3)C(c3ccc(C)cc3)C2)cc1 (centres undefined),22%,?,6%,-13
CC(=O)Nc1ccc(S(=O)(=O)NC2CCS(=O)(=O)C2)cc1Cl (centres undefined),-2%,2.5%,-2%,6

# Next records follow.
SMILES,miR-21 reporter,Rango-impB inh,Rango dissoc inh,GLA inh pH 4.5
CC(=O)Nc1ccc(NC(=O)CCn2c(=S)oc3ccccc32)cc1,-1%,0.5%,-4%,0
Cc1cc(C(=O)N2CCC(C(=O)O)CC2)c(C(F)(F)F)o1,-1%,3.0%,18%,0
COCC(=O)Nc1ccccc1C(=O)Nc1ccc(OC)cc1,-29%,0.4%,-13%,4
Cc1ccc(S(=O)(=O)NNC(=O)c2cccc(O)c2)cc1,-1%,0.0%,15%,-13
O=C(CCSc1nc(-c2ccco2)cc(C(F)(F)F)n1)NCC1CCCO1 (centres undefined),-1%,?,26µM*,-1
C=CCNC(=O)C(C#N)c1nc2ccccc2nc1N1CCN(Cc2ccccc2)CC1 (centres undefined),-2%,?,?,0
CCOc1cc(/C=N/NC(=O)c2cccnc2)ccc1OCC(=O)N1CCOCC1,-4%,-1.9%,-7%,-10
CCN(CC)S(=O)(=O)c1cc(C(=O)Nc2ccccc2[N+](=O)[O-])ccc1Cl,-57%,-0.2%,13%,-8
Cc1ccc(/C=N/Nc2cc(C)nc(NCc3ccccc3)n2)cc1,20%,-4.2%,-8%,-23
Nc1ccc(SCC(=O)Nc2cccc([N+](=O)[O-])c2)cc1,-41%,0.4%,13%,1
O=C(O)CSc1ccc(S(=O)(=O)N2CCCC2)cn1,nt,1.2%,4%,nt
CC(=O)N1CCN(c2ccc(NC(=O)c3cccc(Cl)c3Cl)cc2)CC1,6%,6.9%,-11%,nt
CCCOc1ccc(-c2csc3ncn(Cc4ccc(C(=O)O)cc4)c(=O)c23)cc1,-6%,-0.2%,-9%,2
CC(C)c1ccc(/C=c2\sc3nc(-c4ccncc4)nn3c2=O)cc1,-4%,0.8%,2%,10
CCCN1C(=O)c2ccccc2NC1c1ccc(Cl)c(Cl)c1 (centres undefined),?,-0.1%,12%,nt
CCN(CC(=O)NC(C)C)C(=O)c1ccc(Cl)cc1,-4%,0.7%,15%,-2
Cc1ccc(OCC(=O)NCCCNC(=O)c2cccnc2)cc1C,28%,3.0%,-8%,nt
CC[C@H]1C=C[C@@H](C(C(=O)OC)C(=O)OC)CN1C(C)=O,nt,-0.8%,-4%,nt
CCOc1ccc(Nc2nc3c(c(=O)[nH]2)CCCC3)cc1,-13%,3.6%,-10%,-3
O=C(CNC(=O)c1ccc(Br)cc1)NCC(=O)OCC(=O)c1ccccc1,-1%,-4.2%,12%,4
Cc1cc(NCCCn2ccnc2)n2ncc(-c3ccccc3)c2n1,22%,-2.2%,-1%,1
O=c1cc(-c2c(F)c(F)c(F)c(F)c2F)oc2ccccc12,0%,4.5%,-12%,-1
Cc1cc(=O)oc(C)c1C(=O)O,-3%,5.0%,-11%,1
CSc1cccc(NC(=O)CC2Oc3ccccc3NC2=O)c1 (centres undefined),-5%,4.9%,1%,nt
O=C(CC1CCCCC1)Nc1nc2ccccc2s1,-64%,1.6%,6%,3

# Next part
SMILES,miR-21 reporter,Rango-impB inh,Rango dissoc inh,GLA inh pH 4.5
Nc1ccc([N+](=O)[O-])cc1C(=O)NNC(=O)c1ccco1,-6%,3.2%,2%,-8
Cc1c(Cl)cccc1NC(=S)NCCc1ccc(S(N)(=O)=O)cc1,2%,-0.7%,-8%,-9
O=C(COC(=O)Cc1c[nH]c2ccccc12)Nc1ccccc1C(F)(F)F,nt,-3.5%,4%,nt
COc1ccc(C[C@H]2CN3C(=NC[C@@H]3C(C)C)N2CCNC(=O)CCC2CCCCC2)cc1,14%,-1.5%,7%,0
CCCN(CC(=O)Nc1ccccc1C)C(=O)c1ccc(S(=O)(=O)N2CCCCC2)cc1,-3%,-0.5%,2%,nt
O=C(NC(Cc1ccccc1)C(=O)NCCc1ccccn1)c1cccs1 (centres undefined),0%,1.6%,-7%,nt
C=CCN(c1ccccc1)S(=O)(=O)c1cccc(C(=O)Nc2cc(C)ccn2)c1,nt,1.0%,-15%,nt
Clc1ccccc1CSc1ncccn1,-18%,-0.3%,5%,-14
COc1ccc(NC(=O)CN(C)C(=O)Cc2coc3cc(C)c(C)cc23)cc1,nt,3.4%,10%,nt
O=C(CNC(=O)c1cccs1)Nc1ccc2c(c1)OCCO2,nt,?,12%,nt
COc1ccc(CCNC(=O)CC2SC(N)=NC2=O)cc1OC (centres undefined),0%,-2.6%,1%,8
O=C(Nc1ccccc1C(=O)Nc1ccccc1)c1ccccc1F,0%,2.0%,?,nt
CCN(CC(=O)Nc1ccccc1OC)C(=O)c1cc(-c2ccccc2)nn1-c1ccccc1,nt,0.0%,27%,nt
COC(=O)C1=C(N)OC2=C(C(=O)CC(C)(C)C2)C1c1ccccc1OC (centres undefined),-1%,-0.5%,7%,-13
COc1ccc(CNc2oc(-c3cccc4ccccc34)nc2C#N)cc1,-8%,-2.6%,0%,24
CCOC(=O)C1CCN(C(=O)CCCOc2ccccc2)CC1,-58%,-1.9%,7%,9
COc1ccc(-c2csc(-c3cccs3)n2)c(OC)c1,-66%,-0.9%,8%,-5
COc1cc(C2NC(=O)NC(c3ccccc3)=C2C(C)=O)ccc1OCC#N (centres undefined),-7%,-2.3%,-2%,2
CCN1CCN(C(=O)c2ccc(C)c(S(=O)(=O)Nc3cccc(C)c3)c2)CC1,3%,-0.4%,-14%,nt
O=C(/C=C/Nc1cccc(C(F)(F)F)c1)c1ccc(Oc2ncccn2)cc1,-13%,?,-24%,-5
Cc1ccc(NC(=O)N2CCCCCC2)cc1,-44%,7.4%,-1%,nt
S=C1NC[C@H](c2ccccc2)N1CCCCC1CCCCC1,13%,1.8%,-4%,6
CCC(C)c1ccccc1NC(=O)c1cc2cccc([N+](=O)[O-])c2[nH]1 (centres undefined),8%,-1.6%,11%,-13
CCCC(=O)Nc1ccccc1-c1nnc(SC)[nH]c1=O,-12%,-1.5%,2%,-9
Cn1c(C(=O)N2CCN(c3ccc(Cl)cc3)CC2)cc2c(=O)[nH]c3ccccc3c21,-4%,-1.0%,-5%,3

# Part of the list above, with tabs:
Structure	miR-21 reporter	Rango-impB inh	Rango dissoc inh	GLA inh pH 4.5
CCCN(CC(=O)Nc1ccccc1C)C(=O)c1ccc(S(=O)(=O)N2CCCCC2)cc1	-3%	-0.5%	2%	nt
O=C(NC(Cc1ccccc1)C(=O)NCCc1ccccn1)c1cccs1 (centres undefined)	0%	1.6%	-7%	nt

# Continuation.
SMILES,miR-21 reporter,Rango-impB inh,Rango dissoc inh,GLA inh pH 4.5
O=C(Nc1ccc(-c2nc3ccccc3[nH]2)cc1)c1cccc(N2C(=O)CCC2=O)c1,-19%,-0.3%,-26%,?
CCN1C(=O)CC(C(=O)OC)=C1C,3%,-4.9%,28%,1[21.1 µM]
COc1ccccc1NNC(=O)C(O)(c1ccccc1OC)c1ccccc1OC,-11%,6.7%,-11%,0
CCOC(=O)C(C(C)=O)C(c1ccc(OC)cc1)C(C(C)=O)C(=O)OCC (centres undefined),-2%,0.8%,11%,-4
CCn1cc(C(=O)NCCCN2CCCCCC2)c(=O)c2cc(S(=O)(=O)N3CCc4ccccc4C3)ccc21,6%,-2.1%,-1%,-25
CC1CCCC(NC(=O)COC(=O)c2cccc(NS(=O)(=O)/C=C/c3ccccc3)c2)C1C (centres undefined),-6%,1.3%,6%,-1
O=C(NCCCN=C1NS(=O)(=O)c2ccccc21)c1ccc(Cl)cc1,-7%,-3.9%,-3%,nt
COc1ccc(NC(=O)Cc2ccc(Cl)c(Cl)c2)cn1,-17%,2.8%,-19%,-11
O=C(NCC1CCCO1)c1ccc(COc2ccc(Cl)cc2)cc1 (centres undefined),5%,5.5%,1%,1
CN(C)C(CNC(=S)Nc1cccc(Cl)c1)c1cccnc1 (centres undefined),-1%,0.1%,-3%,0
CN(C)S(=O)(=O)n1cc(/C=C(\NC(=O)c2ccccc2)C(=O)N2CCCC2)c2ccccc21,0%,3.6%,19%,nt
CC1C(=O)C(C)C(c2cccc(Br)c2)NC1c1cccc(Br)c1 (centres undefined),-4%,1.9%,-5%,nt
O=C(CC(Cc1ccccc1)C(=O)O)Nc1cccc(C(F)(F)F)c1 (centres undefined),-1%,2.1%,22%,nt
Cc1cccc(OCC(=O)N(C)c2c(N)n(Cc3ccccc3)c(=O)[nH]c2=O)c1C,nt,-1.1%,13%,nt
CN(Cc1ccccn1)Cc1nc(COc2ccccc2)no1,-20%,0.2%,0%,-11
O=C(NCc1nc2ccccc2[nH]1)C1=C[C@H](c2coc3ccccc3c2=O)C[C@H](OCc2ccc(CO)cc2)O1,14%,?,-8%,-3
O=C(CSc1nc(-c2ccccc2)nn1C(=O)c1ccccc1)Nc1cccc([N+](=O)[O-])c1,0%,0.0%,0%,?

# Rango dissoc inh: entries above that show a hit
SMILES,miR-21 reporter,Rango-impB inh,Rango dissoc inh,GLA inh pH 4.5
O=C(CCSc1nc(-c2ccco2)cc(C(F)(F)F)n1)NCC1CCCO1 (centres undefined),-1%,?,26µM*,-1
